HCMV UL50-53 inh = disrupts HCMV UL50-UL53 complex binding; HTRF UL50-UL53 interaction, normalized percent inhibition; inhibition, % (no concentration beside the values); actives 0.15% (n = 190,000); AID 1918969;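 active = both replicates at 50% or more, plus weaker picks with an unusually low signal ratio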;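 also: stock transfer was 100 nL into about 20 µL; 0% = negative control wells and 100% = wells with untagged competitor protein; inactives centre near -12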
GIV Gai3 FP = blocks GIV peptide binding to rat Galpha-i3 | P08753 | Galpha-i3/FITC-GIV peptide fluorescence polarization, 90 min; active compounds read low; scaled: aluminum fluoride 0%, vehicle 100% | percent of control (FP), % (test concentration not listed) | actives 0.42% (n = 210,000);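 active = replicate mean at 85% of control or lower, very high polarization wells dropped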;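 also: lower values mean more displacement of the GIV peptide from Galpha-i3; wells of about 15 µL received 100 nL stock; the first replicate is given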
Target sequence (P08753 whole entry, looked up): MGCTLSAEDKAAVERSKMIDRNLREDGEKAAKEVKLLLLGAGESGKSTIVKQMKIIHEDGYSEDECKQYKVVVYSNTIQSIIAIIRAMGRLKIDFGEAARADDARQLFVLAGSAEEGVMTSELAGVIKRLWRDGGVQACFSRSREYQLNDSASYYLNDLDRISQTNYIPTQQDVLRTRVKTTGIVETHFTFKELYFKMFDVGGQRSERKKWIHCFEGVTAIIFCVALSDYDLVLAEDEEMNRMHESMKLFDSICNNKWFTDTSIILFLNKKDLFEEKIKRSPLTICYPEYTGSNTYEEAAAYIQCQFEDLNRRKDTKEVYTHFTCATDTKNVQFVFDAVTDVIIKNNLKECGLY
Sa growth inh = inhibitors of Staphylococcus aureus growth at 42 °C; AID 720641; relative growth, % (concentration not given with the values); S. aureus RN4220 growth, OD600, 20 h; active compounds read low; actives 0.53% (n = 170,000);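 active = growth at 42 °C up to 50% and 20 or more points under that at 30 °C, or under 10% at both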;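 also: 300 nL library stock went into each well; scaled to the means of positive and negative controls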
Sa growth inh second temp = recorded beside Sa growth inh, whose call it bears; relative growth, %; measured here: growth at 30 °C;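 optical density after 20 h as mean of two plates; 100% = untreated growth and lower means inhibition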
* hit, by the source's call; . = no result given; & = joins results of further samples.

nr	Structure	HCMV UL50-53 inh	GIV Gai3 FP
1	Cc1ccc(C)c(N2CCN(C(=O)CCS(=O)(=O)c3ccc4c(c3)oc(=O)n4C)CC2)c1	.	113
2	Cc1cc(C)cc(NS(=O)(=O)c2ccc(NC(=O)C3CCCCC3C(=O)O)cc2)c1 (configuration not stated)	-13	.
3	NC(=O)c1cccc(N)c1	-16&0&-7&-16&-37	106
4	CCSCCOC(=O)C1=C(C)NC2=C(C(=O)CC(C)(C)C2)C1c1coc2ccc(C)cc2c1=O (configuration not stated)	-30	99
5	Cc1ccc(Cl)cc1NC(=O)CSc1cc(N2CCCCC2)ncn1	-20	107
6	CC(C)c1nccn1-c1ccc(N)cc1	.	106
7	O=C(NCc1ccccc1)C1CCCN(S(=O)(=O)N2CCCCCC2)C1 (configuration not stated)	.	105
8	O=C(NCc1ccccn1)c1ccc2c(c1)N(Cc1ccccc1)CCS2	-4&-15	99&106
9	c1nnnn1C12CC3CC(CC(C3)C1)C2	12	100
10	CCCCN(CC)C(=O)c1ccc(Nc2ccnc(-c3cccc(C)c3)n2)cc1	-13	103

nr	Sa growth inh	Sa growth inh second temp
1	55	1
2	90	88
3	.	.
4	.	.
5	.	.
6	66	90
7	94	82
8	119	83
9	101	108
10	.	.

The list continues:
nr	Structure	HCMV UL50-53 inh	GIV Gai3 FP
11	COc1ccc(CC(=O)Sc2nc3ccccc3s2)cc1	-2	.
12	CCC(=O)Nc1cccc(C2=NN(C(C)=O)C(c3ccc(F)cc3)O2)c1 (configuration not stated)	-24	104
13	Cc1nccc2[nH]c(=O)c(C(=O)NCCCN3CCC(Cc4ccccc4)CC3)cc12	.	103
14	CCC(CC)NC(=O)c1cc(=O)c2ccccc2o1	-29	.
15	CCc1ccc(N2CC(c3nc4ccccc4n3Cc3ccccc3C)CC2=O)cc1 (configuration not stated)	-30	104
16	CCCN(Cc1nnc(-c2ccccc2Cl)o1)C(=O)C1(c2ccccc2)CC1	-12	.
17	O=C(O)c1cc(N2CCCC2)ccc1NS(=O)(=O)c1ccc(Cl)cc1	-47	107
18	COc1ccc(NC(=O)CSc2nc(-c3ccco3)cc(C(F)(F)F)n2)cc1OC	-21	96
19	O=c1c2nnn(Cc3ccccc3)c2ncn1C/C=C/c1ccccc1	25	102
20	COc1ccc(C2c3c(-c4ccccc4O)n[nH]c3C(=O)N2Cc2ccco2)cc1 (configuration not stated)	-4	105

nr	Sa growth inh	Sa growth inh second temp
11	90	98
12	83	80
13	115	87
14	91	91
15	102	84
16	75	82
17	.	.
18	98	88
19	116	114
20	71	39

(continued)
nr	Structure	HCMV UL50-53 inh	GIV Gai3 FP
21	CCCc1cc(=O)[nH]c(-n2nc(C)cc2NC(=O)c2cccc(Br)c2)n1	-13	98
22	CC(=O)Nc1sccc1C(N)=O	-22	107
23	Cc1ccccc1CNC(=O)CC1CCN(C(=O)c2[nH]c(C)c(C(=O)OC(C)C)c2C)CC1	-12	101
24	O=C(O)c1ccccc1C(=O)Nc1ccc(OC(F)F)cc1	-25	104
25	CCOc1ccc(C2c3cccn3-c3sc4c(c3CN2C(=O)NC(C)C)CCCC4)cc1 (configuration not stated)	-7	113
26	COc1ccc(S(=O)(=O)N2CCN(C(=O)c3cccs3)CC2)cc1OC	-6	108
27	CCCN(C(=O)c1sc2nc3n(c(=O)c2c1C)CCCC3)c1ccccc1C	-25	100
28	CC(=O)Nc1ccc(C2=CSC3=NCCN23)cc1	-13	102
29	O=C(NC1CCCC1)C1CC(=O)N(CCc2ccccc2)C1 (configuration not stated)	.	98
30	Cc1cccc(C(=O)N(c2ccccn2)C(C)c2ccco2)c1 (configuration not stated)	-44	.

nr	Sa growth inh	Sa growth inh second temp
21	.	.
22	98	92
23	.	.
24	95	84
25	.	.
26	114	108
27	115	95
28	99	90
29	112	77
30	124	90

Additional structures follow.
nr	Structure	HCMV UL50-53 inh	GIV Gai3 FP
31	Cc1ccc(N2C(=O)N(Cc3cccnc3)c3ccccc3S2(=O)=O)cc1F	-19	102
32	Cc1ccc(-n2c(SCC(N)=O)nc3c(oc4ccccc43)c2=O)cc1C	5	109
33	O=C(O)Cc1ccc(OCc2ccccc2)cc1	-6	107
34	O=C(CSc1nnc(-c2cccs2)n1C1CC1)N1CCCC1c1ccc2c(c1)OCCCO2 (configuration not stated)	-32	.
35	COCCCNC(=O)Cn1nc(N2CCN(c3ccccc3)CC2)ccc1=O	-28	109&103
36	CCCNC(=O)c1sc2c(c1C(=O)Nc1ccccn1)CCCC2	20	.
37	Cc1ccc(CN2CCCn3nc(C(=O)NCC(C)c4ccccc4)cc3C2=O)cc1 (configuration not stated)	.	101
38	COc1ccc(-c2nc(O)c3cnccn23)cc1	-147	.
39	CC1CCN(S(=O)(=O)c2ccc3ncn(CC(=O)Nc4ccccc4C(F)(F)F)c(=O)c3c2)CC1	-4	100
40	CC1=C(C(N)=O)C(c2ccc(C)cc2)n2nc(SCc3ccccc3)nc2N1 (configuration not stated)	-47	111

nr	Sa growth inh	Sa growth inh second temp
31	100	93
32	94	80
33	96	89
34	91	82
35	82	95
36	101	98
37	87	94
38	91	91
39	73	87
40	93	104

Further records.
nr	Structure	HCMV UL50-53 inh	GIV Gai3 FP
41	NC(=O)CSc1nnc(Nc2ccccc2)s1	-12	.
42	O=C(O[C@@H]1C[C@H]2C(=O)N[C@@H](Cc3ccccc3)C(=O)N2C1)c1ccccc1	9	104
43	COc1cc(/C=C2\C(=O)NC(=O)N(c3ccc(C(C)(C)C)cc3)C2=O)ccc1OCC(=O)O	-22	110
44	O=C(Nc1ccc2nc(SCCOc3ccccc3)sc2c1)c1cccs1	-10	102
45	COC(=O)c1ccccc1S(=O)(=O)N(CCCN1CCOCC1)Cc1cccs1	5	108
46	COc1ccccc1-c1c(C#N)c(N)nc(SSc2nc(N)c(C#N)c(-c3ccccc3OC)c2C#N)c1C#N	-24	.
47	O=C(CSc1ncccc1C(=O)Oc1ccccc1Cl)Nc1ccc(C(F)(F)F)cc1Cl	.	102
48	CCOC(=O)C1=C(C)N=c2s/c(=C\c3cc4c(cc3Br)OCO4)c(=O)n2C1c1ccccc1 (configuration not stated)	-10	99
49	CCn1c(CNC(=O)c2ccc(Cl)cc2)nnc1SCC(=O)NC1=NCCS1	-27	104
50	S=c1n(CN(Cc2ccccc2)Cc2ccccc2)nnn1-c1ccccc1	-15	.

nr	Sa growth inh	Sa growth inh second temp
41	102	88
42	67	97
43	.	.
44	108	86
45	96	78
46	105	101
47	111	87
48	.	.
49	90	81
50	88	94

One compound at a time, from the list above. Screens in order: HCMV UL50-53 inh | GIV Gai3 FP | Sa growth inh | Sa growth inh second temp
CCn1c(CNC(=O)c2ccc(Cl)cc2)nnc1SCC(=O)NC1=NCCS1 as listed: -27 | 104 | 90 | 81
O=C(Nc1ccc2nc(SCCOc3ccccc3)sc2c1)c1cccs1 as listed: -10 | 102 | 108 | 86
COC(=O)c1ccccc1S(=O)(=O)N(CCCN1CCOCC1)Cc1cccs1 as listed: 5 | 108 | 96 | 78
NC(=O)CSc1nnc(Nc2ccccc2)s1 as listed: -12 | . | 102 | 88
CCOC(=O)C1=C(C)N=c2s/c(=C\c3cc4c(cc3Br)OCO4)c(=O)n2C1c1ccccc1 (configuration not stated) as listed: -10 | 99 | . | .

New compounds follow
nr	Structure	HCMV UL50-53 inh	GIV Gai3 FP
51	Cc1cccc(N2CCN(C(=O)CCNS(=O)(=O)c3ccc4c(c3)CCN4C(=O)C3CC3)CC2C)c1 (configuration not stated)	.	101
52	O=C(CC1CCN(C(=O)C2CCCCC2)CC1)NCCN1CCCCC1	-33	98
53	CCn1c2c(c(=O)[nH]c1=O)C(c1ccccc1)C1=C(N2)c2ccccc2C1=O (configuration not stated)	-243	102
54	O=C(O)C1Cc2ccccc2CN1S(=O)(=O)/C=C/c1ccccc1 (configuration not stated)	-14	.
55	CC(C)Oc1ccc(C2CC(=O)NNC2=O)cc1 (configuration not stated)	-16	102&100
56	Nc1nnc2cc(C(=O)c3cc(F)ccc3O)cnn12	-10	.
57	Nc1nc(COC(=O)/C=C/c2cc(Cl)c3c(c2)OCCO3)nc(Nc2ccccc2)n1	-3	.
58	Cc1ccc(N(CC(N)=O)C2SC(=O)N(c3ccccc3)C2=O)cc1 (configuration not stated)	.	101
59	O=C1C=C/C(=N/N(Cc2ccccc2)c2ccccc2)O1	-30	.
60	Nc1ccc2c(c1)COC2=O	18	112

nr	Sa growth inh	Sa growth inh second temp
51	120	68
52	.	.
53	96	84
54	101	88
55	93	101
56	78	75
57	110	98
58	115	93
59	98	95
60	96	94

Structures listed so far with a CF3 group (3):
nr	Structure	HCMV UL50-53 inh	GIV Gai3 FP
18	COc1ccc(NC(=O)CSc2nc(-c3ccco3)cc(C(F)(F)F)n2)cc1OC	-21	96
39	CC1CCN(S(=O)(=O)c2ccc3ncn(CC(=O)Nc4ccccc4C(F)(F)F)c(=O)c3c2)CC1	-4	100
47	O=C(CSc1ncccc1C(=O)Oc1ccccc1Cl)Nc1ccc(C(F)(F)F)cc1Cl	.	102

nr	Sa growth inh	Sa growth inh second temp
18	98	88
39	73	87
47	111	87

Next section
nr	Structure	HCMV UL50-53 inh	GIV Gai3 FP
61	CCC(=O)Nc1ccc(C(=O)c2ccccc2)cc1	-26	.
62	Clc1ccc(C2=CC(c3ccco3)n3ncnc3N2)cc1 (configuration not stated)	-28&-61	.
63	CCCCOc1ccc(C(=O)N(Cc2ccco2)Cc2ccco2)cc1	-4	109
64	CCN(C(=O)c1cn(C)c(=O)c2ccccc12)c1cccc(C)c1	25	108
65	CCOc1ccccc1NC(=O)CCc1c(C)nc2c3cccnc3nn2c1C	-3	103
66	CN(Cc1ccccc1)C(=O)Nc1ccc2c(c1)N(Cc1ccccc1)C(=O)c1ccccc1S2	-14	100
67	COc1cc(C2C(C#N)=C(N)OC3=C2C(=O)CC(C)(C)C3)ccc1OCC(=O)Nc1ccccc1C (configuration not stated)	-11	.
68	CCOC(=O)CSc1nc2cc3c(cc2c(=O)n1CCCC(=O)NCc1ccc2c(c1)OCO2)OCO3	.	104
69	COc1ccccc1NC(=O)c1cc2c(oc1=O)CC(C)(C)CC2=O	-21	97
70	OCCNC1CCCc2c1[nH]c1ccc(Br)cc21 (configuration not stated)	0	105

nr	Sa growth inh	Sa growth inh second temp
61	110	71
62	87	84
63	70	57
64	89	103
65	99	82
66	.	.
67	96	79
68	79	66
69	.	.
70	77	62

Later entries:
nr	Structure	HCMV UL50-53 inh	GIV Gai3 FP
71	COCCN=C1NN=C(c2ccc(C(C)(C)C)cc2)CS1	-21	.
72	CCOC(=O)c1[nH]c(C)c(S(=O)(=O)N2CCCCC2)c1C	-3	99
73	CCN(CC)C(=S)SC1=CCS(=O)(=O)C1	.	100
74	CCOC(=O)CSc1nncc(=O)[nH]1	-1	100
75	O=C(CCC(=O)N1CCc2cc(S(=O)(=O)NCCC3=CCCCC3)ccc21)N1CCCCC1	-24	97
76	O=C(Cc1csc(NC(=O)c2ccccc2)n1)NCc1ccccc1Cl	-25	101
77	CCOc1ccc(-c2cc(=O)c3cc(NC(=O)Nc4ccc(Cl)cc4)ccc3o2)cc1	-13	102
78	c1ccc2[nH]c(CSc3nc4ccccc4o3)nc2c1	3&-13	107
79	COc1ccccc1N1CCN(S(=O)(=O)c2cccc3c2C(=O)c2ccccc2C3=O)CC1	-39	110
80	CCOc1ccc2sc(C=NCc3cccnc3)c(O)c2c1	-61	108

nr	Sa growth inh	Sa growth inh second temp
71	82	98
72	.	.
73	112	90
74	88	94
75	.	.
76	.	.
77	.	.
78	85&88	85&59
79	.	.
80	.	.

The results go on.
nr	Structure	HCMV UL50-53 inh	GIV Gai3 FP
81	CCCCCCCc1c(C)[nH][nH]c1=O	-17	109
82	COc1cccc(NC(=O)c2ccc(CN3CCN(c4ccccc4)CC3)cc2)c1	-14	99
83	COc1ccc(-c2nc(NCC3CCCO3)c3ccccc3n2)cc1 (configuration not stated)	.	103
84	CCOC(=O)c1c(C)n(-c2ccc(C)cc2)c2ccc(OCC(O)CN3CCCCC3C)cc12 (configuration not stated)	-4	96
85	Cc1ccc(C)c(NC(=NCc2ccncc2)NC(=O)c2ccc(CN3CCOCC3)cc2)c1	8	100
86	O=C(Nc1ccc(Cl)cc1)C1=Cc2ccccc2OC1	11	106
87	COc1cccc(-c2nc(SCc3ccc(C)cc3)n3[nH]c(=O)cc3n2)c1	.	102
88	O=C(NCCN1CCOCC1)C1(c2cccs2)CCOCC1	-7	105
89	COc1cccc(Sc2nc3ccccc3n3c(=O)n(CC(=O)NC4CCCCC4)nc23)c1	-2	104
90	Cc1c(OC(C)C)ccc2c3c(c(=O)oc12)CCC3	-12	105

nr	Sa growth inh	Sa growth inh second temp
81	76	36
82	84	91
83	73	47
84	.	.
85	.	.
86	.	.
87	109	102
88	90	87
89	.	.
90	98	98

More entries follow:
nr	Structure	HCMV UL50-53 inh	GIV Gai3 FP
91	CCNc1nc(OC)nc(Oc2ccc(/C=N/O)cc2)n1	.	110
92	CCOCCCNc1nc2ccccc2nc1NS(=O)(=O)c1cccc2nsnc12	-16	110
93	COc1ccc(NC(=O)CCCn2c(=O)c3cccn3c3cccnc32)cc1Cl	.	105
94	Cc1occc1-c1nnc(SCC(=O)N(Cc2ccccc2)C(C)(C)C)n1C	-1	.
95	Cc1nc(N2CCN(C)CC2)sc1-c1ccccc1	-28	.

nr	Sa growth inh	Sa growth inh second temp
91	82	81
92	139	88
93	114	94
94	94	94
95	98	87
